nsP2pro primary = CHIKV nsP2 protease inhibition, primary qHTS; Q8JUX6; FRET peptide cleavage, nsP2pro, fluorescence 1 h; Potency, µM (series often up to 24.9 µM), without a hit: at the highest dose activity change, negative = inhibition, actives largely listed as inhibitors; 31,000 compounds, 1.1% hits; active means well fitted inhibition curve with a large enough effect; inconclusive means small, poorly fitted or top-dose-only effect; inactive means no such curve, though single readings can be large or run the other way; further: nearly all actives have a fitted effect of over 60% in size; a reference inhibitor and vehicle were the controls
An asterisk follows results filed as active; i = inactive; ? = inconclusive; & = joins results of further samples; [ ] = dose if it differs, or a comment. On the % scale 0 is the no-effect control and ±100 the full control effect; potency means the concentration at half of the fitted maximal effect. A portion of the library. The share of hits here may be higher or lower than overall.

canonical_smiles	nsP2pro primary
Clc1ccc(-c2nc3ccccn3c2Nc2ccc3c(c2)OCCO3)s1	10%
O=C(COc1ccccc1Cl)OCc1cc(=O)n2nc(C3CCCCC3)sc2n1	-27%
c1ccc(-c2nnc([C@H]3CCN(C4CCC4)C3)o2)cc1	1%[39.2 µM]
O=C(OCc1ccccc1Cl)c1ccc(-c2nnn(Cc3ccccc3)n2)cc1	-27%
COc1cccc(CNc2ccc(S(=O)(=O)Nc3ncc(C)s3)cc2)c1O	1%
CC(C)(C)c1coc([C@@H]2COCCN2C2CCC2)n1	2%[39.2 µM]
O=[N+]([O-])/N=C1\NCCN1Cc1ccc(Cl)nc1	-4%
CC(=O)N1CCN(c2ccc(NCc3cccs3)cc2)CC1	i
CC/C=C/CC1=C(CCCCC(CCC(=O)O)OC(C)=O)CCC1=O (stereo unspecified)	6%
CCOc1ccc(CCNC(=O)c2cc3sccc3n2Cc2ccccn2)cc1OCC	i
COc1ccc(-c2cc(-c3cnn(C)c3)cn3cncc23)cn1	-29%[39.2 µM]
CC(=O)NCC(=O)N1Cc2ccccc2CC2(CCN(CC3CCCCC3)C2)C1 (stereo unspecified)	-6%
CC(=O)N1CCc2cc(Br)cc(S(=O)(=O)CCC(=O)Nc3ccc(C)cc3Cl)c21	-17%
Cc1noc(C)c1S(=O)(=O)Nc1cnccc1C(=O)Nc1nc(-c2ccccc2)cs1	3%
C[N+]1(CCF)[C@@H]2CC[C@H]1CC(OC(=O)C(O)(c1ccccc1)c1ccccc1)C2 (stereo partly specified)	-8%
COc1ccc(CN2CCOC[C@H]2c2ncc(-c3cccnc3)[nH]2)cc1	i
O=C1CC(c2ccccc2)Cc2[nH]c(=O)c(-c3nc(-c4ccc(F)cc4)cs3)cc21 (stereo unspecified)	1%
CC(=O)OCC(=O)[C@H]1CC[C@H]2[C@@H]3CCC4=CC(=O)CC[C@]4(C)[C@H]3CC[C@]12C	?
O=C(NC[C@H]1OC[C@@H](NC2CCC2)[C@@H]1O)N1CCOCC1	3%[39.2 µM]
CC(=O)Nc1cc2c(s1)CNCC2	2%
CCc1ccc(NC(=O)c2cc3c(=O)n(Cc4cccs4)ccc3nc2C)cc1	7%
CCOC(=O)c1cnn(-c2ccc(C(=O)Nc3cccc(C(C)=O)c3)cc2)c1N	-16%
CC1CCC2(NC1)OC1C(=O)C3C4CCC5CC(O[C@@H]6O[C@H](CO)[C@@H](O)[C@H](O)[C@H]6O[C@@H]6O[C@@H](C)[C@H](O)[C@@H](O)[C@H]6O)CCC5(C)C4CCC3(C)C1C2C (stereo partly specified)	?
CCOc1ccc(CNC(=O)C2CCN(C(=O)c3ccc(-n4ccc5ccccc54)s3)CC2)cc1	-16%
CC[N+](CC)(CC)CCC(O)(c1ccccc1)C1CCCCC1 (stereo unspecified)	-2%

The listing continues:
canonical_smiles	nsP2pro primary
Cc1ccc(OCC(=O)Nc2nonc2-c2ccc(Br)cc2)cc1	-2%
O=C1c2c(O)cc(O)cc2O[C@H](c2ccc(O)c(O)c2)[C@H]1O	19%
COc1ccc(CNc2nccc(CCC(F)(F)F)n2)cc1OC	i
COc1cccc2c1cc1c(=O)n(CC(=O)N3CCN(c4ccccc4)CC3)nc(C)n12	-13%
CC1(C)CC[C@]2(C(=O)O[C@@H]3O[C@H](CO[C@@H]4O[C@H](CO)[C@@H](O)[C@H](O)[C@H]4O)[C@@H](O)[C@H](O[C@@H]4O[C@H](CO)[C@@H](O)[C@H](O)[C@H]4O)[C@H]3O)CC[C@]3(C)C(=CCC4[C@@]5(C)CC[C@H](O[C@@H]6OC[C@@H](O)[C@H](O)[C@H]6O)[C@@](C)(C(=O)O)C5CC[C@]43C)[C@@H]2C1 (stereo partly specified)	25%[5.1 µM]
Cc1cc2c(s1)c1cnn(Cc3ccc(S(C)(=O)=O)cc3)c(=O)c1n2C	i
CCOC(=O)Cc1ccc(NC(=O)NCc2c(-n3cccc3)sc3c2CCCC3)cc1	-18%
Cc1cc(C)cc(-n2c(C)nc3cc(C(=O)NCc4ccccc4Cl)ccc32)c1	-11%
CN1[C@@H]2CC[C@H]1CC(OC(=O)C1C=Nc3ccccc31)C2 (stereo partly specified)	6%
COc1ccccc1CN1COc2ccc3c(oc(=O)c4ccccc43)c2C1	-41%
CC(CN1c2ccccc2Sc2cccnc21)N(C)C (stereo unspecified)	?
Cc1ccc(NC(=O)C(=O)NCc2ccc(Cl)cc2)cc1	-20%
CC(C)(C)c1ccc(NC(=O)N2CCN(c3ncccc3Cl)CC2)cc1	?
CN(Cc1ccccc1)c1ccc(-c2nc(-c3ccccn3)no2)cc1[N+](=O)[O-]	-13%
O=C(NCc1ccc2c(c1)OCO2)c1c(Cl)cccc1Cl	-25%
Cc1cc(N[S+](=O)([O-])c2ccc(NC(=O)Cc3ccc(F)c(C)c3)cc2)no1	1%
COc1cccc(C(=O)NCC2CCCN(Cc3ccccn3)C2)c1OC (stereo unspecified)	i
Cc1nc(SCc2cccc(Cl)c2)nc2c1CCCC2	-24%
Cc1ccc(-c2c(C(=O)CCl)n(CCCO)c3ncnc(N)c23)cc1	4%
Cc1cnc(C2CC2)n1C1CCCN(C(=O)c2ccoc2)C1 (stereo unspecified)	i
COc1ccc(CN(C)CC2CCN(C)C2(C)C)cc1C(=O)O (stereo unspecified)	-17%
CCOC(=O)CC(NC(=O)c1cc2c(=O)n3cccc(C)c3nc2s1)c1ccc(OCC(C)C)c(OC)c1 (stereo unspecified)	-16%
CC(C)CCN(C1CCOCC1)C1CCN(Cc2cccnc2)CC1	1%
COc1ccc(-c2cc(C)no2)cc1S(=O)(=O)N1CCCC(C)C1 (stereo unspecified)	4%
CCOC(=O)C1CCN(c2ccc(NCc3ccc(-c4ccc(C#N)cc4)o3)cc2)CC1	4.5µM*

Continued; the last 2 above are carried over.
canonical_smiles	nsP2pro primary
COc1ccc(-c2cc(C)no2)cc1S(=O)(=O)N1CCCC(C)C1 (stereo unspecified)	4%
CCOC(=O)C1CCN(c2ccc(NCc3ccc(-c4ccc(C#N)cc4)o3)cc2)CC1	4.5µM*
S=C(NCCCc1cnc[nH]1)NCCN(Cc1ccc(Cl)c(Cl)c1)c1ccc(Br)cn1	i
O=C(N[C@H]1C[C@@H]2OCC[C@H]12)c1cccc(-n2cnnc2)n1	5%
COc1nccnc1-c1cc(NCCN(C)C)nc2[nH]ccc12	?
Cc1ccc(C(=O)c2cc(O)c(O)c([N+](=O)[O-])c2)cc1	-5%&14%
Cc1ccc(-n2c(=O)c3c4c(sc3n(Cc3cc(=O)n5ccccc5n3)c2=O)CCC4)cc1C	-18%
COC(=O)[C@H](NC(=O)[C@@H]1C[C@H](NC(=O)Nc2ccc(OC)cc2)CN1C(=O)CSC)C(C)C	-2%
O=C1NCCC[C@@H]1NC(=O)[C@H]1CN(C(=O)C2CCNCC2)CCN1C(=O)c1cccs1	-2%
O=C(NCCc1nc2ccccc2n1CCOc1ccccc1F)C1CCCCC1	-8%
COc1ccc(C[C@H](C)NC[C@@H](O)c2ccc(O)c(NC=O)c2)cc1	12%&-9%
COc1ccc(OC)c(CNC(=O)CC2C(=O)NCCN2CC=C(C)C)c1 (stereo unspecified)	-8%
O=C(N/C=C/c1ccccc1)c1cccc([S+](=O)([O-])Nc2ccccc2F)c1	-12%
CC1CN(c2ccccc2C#N)C(=O)CN1C(=O)c1ccc2c(c1)OCCO2 (stereo unspecified)	-2%
COc1ccc(-c2ccc3ncnc(NCC4CCCO4)c3c2)cc1OC (stereo unspecified)	-4%
CN(C)c1cc2c(Nc3ccc4c(cnn4Cc4ccccc4)c3)ncnc2cn1	76%[activator]
COc1cc(OC)cc(C(=O)Nc2ccc(S(=O)(=O)Nc3ncccn3)cc2)c1	-13%
COc1ccc(S(=O)(=O)N2Cc3ccccc3CC2C(=O)Nc2ccc(C)cc2)cc1OC (stereo unspecified)	5%
CC(C)C(=O)N1CCC(c2nc(-c3cccnn3)no2)CC1	3%
COc1cccc(-c2cn3c(n2)sc2cc(C(=O)NCc4cccs4)ccc23)c1	-3%
COc1cc(NC(C)CCCN)c2ncccc2c1 (stereo unspecified)	19%
Cc1ccnc(NC(=S)N2CCN(c3ccc(Cl)cc3)CC2)c1	-3%
CCOC(=O)c1c(NC(=O)c2cc(-c3ccc(Br)cc3)on2)sc(C(C)=O)c1C	0%
CC(C)c1ccc(CN2CC(CNC(=O)C3CCOCC3)C3(C2)CN(c2ccccc2)C3)cc1 (stereo unspecified)	3%
Cc1ccc(-n2c(SCc3ccccc3F)nc3[nH]ncc3c2=O)cc1C	12%
CNC(=O)N1N=C(c2ccc(N)cc2)c2cc3c(cc2CC1C)OCO3 (stereo unspecified)	-10%
CC(C)(C)CC(C)(C)c1ccc(O)cc1	-6%

The list continues:
canonical_smiles	nsP2pro primary
S=P(c1ccccc1)(c1ccccc1)c1cnc2ccccn12	1%
CCOC(=O)c1ccc(N2NC(=O)/C(=C\c3ccc([N+](=O)[O-])o3)C2=O)cc1	21%
COc1ccc(C)cc1S(=O)(=O)NCC(c1cccs1)S(=O)(=O)c1ccc(C)cc1 (stereo unspecified)	-3%
Cc1nnc(-c2cnn(C)c2N)n1CCc1cccs1	-10%
N#Cc1cc([N+](=O)[O-])c2sc(C(N)=O)[n+]([O-])c2c1	?
COc1ccc(C[C@H](NC(=O)C2=C[C@@H](Oc3cc(F)ccc3Br)[C@H](O)[C@H](O)C2)C(N)=O)cc1	i
Cc1cccc(-c2noc([C@@H]3Cc4nc[nH]c4CN3C(=O)C3CCCCC3)n2)c1	72%[activator][39.2 µM]
O=c1c2nc(-c3ccsc3)ccc2ncn1-c1ccccc1	?
CN(C)c1ccc(O)c2c1C[C@H]1C[C@H]3[C@H](N(C)C)C(=O)C(C(N)=O)=C(O)[C@@]3(O)C(=O)C1=C2O	50%[activator]
CC(C)n1cnc(S(=O)(=O)N2CCCC(C(=O)NCc3ccccc3Cl)C2)c1 (stereo unspecified)	-20%
CC1(C)CC[C@]2(C(=O)O)CC[C@]3(C)C(=CCC4[C@@]5(C)C[C@H](O)[C@H](O[C@@H]6OC[C@H](O)[C@H](O)[C@H]6O)[C@@](C)(CO)C5CC[C@]43C)[C@@H]2C1 (stereo partly specified)	8%[10 µM]
Cc1cccc(CNc2ccnc(-c3cccc4ccccc34)n2)c1	-2%
COc1ccc(Cl)cc1N(C)C(=O)Cc1noc2ccc(C)cc12	-25%
CC(C)Oc1ccc(CNC(=O)C(C)n2ccc3cc(S(=O)(=O)N4CCCCCC4)ccc32)cc1 (stereo unspecified)	-17%
CCc1ccc(C(=O)CC2(O)C(=O)N(CCc3ccccc3)c3ccc(Br)cc32)cc1 (stereo unspecified)	-13%
O=C(CSC1=Nc2ccccc2N=C(c2ccc(F)cc2)C1)NCc1ccccc1Cl	-10%
COc1ccc(-n2nc(C(=O)O)c(=O)n(C)c2=O)cc1	-24%
COc1cccc(CNc2ccc(S(=O)(=O)Nc3nc(C)c(C)s3)cc2)c1O	?
CC(O)(C(=O)C1CC1(CO)COC1OC(CO)C(O)C(O)C1O)C1C(O)CC2C3CC=C4CC(O)CC(O)C4(C)C3C(O)CC21C (stereo unspecified)	?
C/C1=C\C[C@H](O[C@@H]2O[C@H](CO)[C@@H](O)[C@H](O)[C@H]2O)/C(C)=C/[C@H]2OC(=O)[C@H](C)[C@@H]2CC1	-3%[10 µM]
CC1(C)CCC[C@@]2(C)[C@H]1[C@H](O)C=C1COC(=O)[C@@]12O	-13%
COCCn1c(=O)[nH]c2cc(C(=O)N3CCN(c4ccc(Cl)cc4)CC3)ccc2c1=O	-15%
COc1ccc(N(C)C(=O)c2nc(-c3cccc(F)c3)n3c2CCCCC3)c(OC)c1	-19%
C/C=C/C=C/C(O)=C1\C(O)=C(C)C(=O)[C@@]2(C)OC(=O)[C@@](C)(NC(=O)/C=C/C(=O)O)[C@@H]12	12%[10 µM]
OC[C@H]1O[C@@H](O[C@H]2[C@H](OCc3ccccc3)O[C@H](CO[C@@H]3OC[C@@H](O)[C@H](O)[C@H]3O)[C@@H](O)[C@@H]2O)[C@H](O)[C@@H](O)[C@@H]1O	10%[10 µM]
O=C(O)[C@H]1C[C@H](C(=O)NCc2ccccn2)CN(C(=O)CC2CCCC2)C1	5%

Of the compounds above, 10 have fluorine.
canonical_smiles	nsP2pro primary
C[N+]1(CCF)[C@@H]2CC[C@H]1CC(OC(=O)C(O)(c1ccccc1)c1ccccc1)C2 (stereo partly specified)	-8%
O=C1CC(c2ccccc2)Cc2[nH]c(=O)c(-c3nc(-c4ccc(F)cc4)cs3)cc21 (stereo unspecified)	1%
COc1ccc(CNc2nccc(CCC(F)(F)F)n2)cc1OC	i
Cc1cc(N[S+](=O)([O-])c2ccc(NC(=O)Cc3ccc(F)c(C)c3)cc2)no1	1%
O=C(NCCc1nc2ccccc2n1CCOc1ccccc1F)C1CCCCC1	-8%
O=C(N/C=C/c1ccccc1)c1cccc([S+](=O)([O-])Nc2ccccc2F)c1	-12%
Cc1ccc(-n2c(SCc3ccccc3F)nc3[nH]ncc3c2=O)cc1C	12%
COc1ccc(C[C@H](NC(=O)C2=C[C@@H](Oc3cc(F)ccc3Br)[C@H](O)[C@H](O)C2)C(N)=O)cc1	i
O=C(CSC1=Nc2ccccc2N=C(c2ccc(F)cc2)C1)NCc1ccccc1Cl	-10%
COc1ccc(N(C)C(=O)c2nc(-c3cccc(F)c3)n3c2CCCCC3)c(OC)c1	-19%
